Screening data: PubChem, several laboratories
HNF4A DNA FP – change in binding of human HNF4 alpha to DNA; activity change, % at 10 µM; HNF4a-FITC DNA binding, fluorescence polarization, 1 h; P41235; 360,000 compounds, 0.3% hits; in the data active means activity change above about 30%, passing the limit was not always enough;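 further: controls were the assay level and a saturating level of protein; the project sought stronger binding though the title names inhibitors; some compounds called inactive have numbers as strong as hits; positive values seem to mean higher polarization but the record does not say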
ALR inh – blocks human ALR sulfhydryl oxidase activity; inhibition, % (concentration not given with the values); 290,000 compounds, 3.8% hits; purified ALR, DTT oxidation, H2O2 HRP-luminol luminescence; P55789;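 active means mean and each replicate at 75% or more; inconclusive means only one of the two met; inactive means neither met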;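 further: stock transfer was 7.5 nL into about 7.5 µL; 0% = neutral wells and 100% = wells with inactivated enzyme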
Target sequence (P55789 whole entry, looked up): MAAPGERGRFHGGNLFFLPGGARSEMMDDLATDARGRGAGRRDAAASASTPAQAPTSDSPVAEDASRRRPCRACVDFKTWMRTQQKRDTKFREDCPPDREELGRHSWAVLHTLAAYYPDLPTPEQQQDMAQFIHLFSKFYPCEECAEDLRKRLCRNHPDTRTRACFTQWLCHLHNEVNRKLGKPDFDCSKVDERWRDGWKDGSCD
Vif TR-FRET – HIV-1 Vif–A3G interaction blockers – biochemical, TR-FRET, GST-Vif 1-94, biotin-A3G peptide, dose response retest, primary screen (AID 1117319); TR-FRET GST-Vif / biotin-A3G peptide binding; higher % means a stronger effect; test concentration not given here; strong numbers were not always called active; 260,000 compounds, 0.57% hits; inhibition, %; hits with a dose series show IC50 in µM;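 active means above the screen mean plus three standard deviations and confirmed in dose response; inconclusive means results disagree or hit not tested in dose response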;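 further: Vif residues 1-94 fused to GST binding biotinylated APOBEC3G peptide 110-148; 0% = full assay without inhibitor and 100% = GST in place of GST-Vif; retest series ran down from 100 µM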
AF4-AF9 inh – MLL-AF4/AF9 protein interaction inhibition. AID 651704. AlphaScreen, biotin-AF4 peptide binding to FLAG-AF9. 350,000 compounds, 0.47% hits. inhibition, % at 10 µM. P42568;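 active means every replicate reaching a set inhibition limit, whatever the replicate mean, cut at about 25% in these data; inconclusive means mean inhibition reaches that limit but some replicates miss it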;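 further: 0% = plate neutral control median and 100% = total signal loss; the record names both 10 and 1 µM as test concentration; the first replicate is given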
Target sequence (P42568 whole entry, looked up): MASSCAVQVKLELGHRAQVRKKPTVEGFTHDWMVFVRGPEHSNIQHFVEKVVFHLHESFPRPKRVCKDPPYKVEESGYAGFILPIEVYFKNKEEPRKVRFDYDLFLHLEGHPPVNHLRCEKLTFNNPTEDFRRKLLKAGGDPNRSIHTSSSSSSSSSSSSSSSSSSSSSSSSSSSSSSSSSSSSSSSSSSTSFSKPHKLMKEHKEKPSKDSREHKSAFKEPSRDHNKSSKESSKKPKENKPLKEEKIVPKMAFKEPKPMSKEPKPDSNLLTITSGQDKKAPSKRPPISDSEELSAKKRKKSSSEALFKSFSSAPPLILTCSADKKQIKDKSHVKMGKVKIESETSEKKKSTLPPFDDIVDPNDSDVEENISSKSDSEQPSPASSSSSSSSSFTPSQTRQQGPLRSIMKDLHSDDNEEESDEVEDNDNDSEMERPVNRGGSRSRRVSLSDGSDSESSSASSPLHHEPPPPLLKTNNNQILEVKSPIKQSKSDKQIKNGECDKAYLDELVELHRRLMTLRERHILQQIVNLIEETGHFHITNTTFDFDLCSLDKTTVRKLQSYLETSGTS
E coli growth – E. coli growth inhibition. Escherichia coli growth, OD600, 23 h; stronger effect = lower value. OD600 absorbance (test concentration not listed). 330,000 compounds, 0.21% hits. AID 1053175;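 active means OD600 absorbance below the run mean of sample wells minus 3.6 SD, in any replicate, cut at about 0.56 in these data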;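 further: stock transfer was 300 nL into about 60 µL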
FGF22 binding – FGF22 (human) thermal shift binding. Q9HCT0. recombinant FGF22 thermal shift, SYPRO orange fluorescence; percent of sucrose octasulfate shift, DMSO zero. calls only at 9.99 µM. 340,000 compounds, 1.5% hits. AID 651658;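 active means melting point raised past a set limit in the mean and every replicate; inconclusive means no clear call; three in four hits are not shown here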
Target sequence (Q9HCT0 whole entry, looked up): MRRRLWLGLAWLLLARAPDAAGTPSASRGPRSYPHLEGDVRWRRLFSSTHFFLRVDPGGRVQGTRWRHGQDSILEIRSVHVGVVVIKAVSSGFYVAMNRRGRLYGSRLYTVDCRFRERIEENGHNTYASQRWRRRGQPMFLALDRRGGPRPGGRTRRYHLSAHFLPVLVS
Ecoli rRNA inh – inhibits bacterial ribosomal RNA function over humanized ribosomes; AID 720706; E. coli WT GFP vs humanized-ribosome RFP mutants, fluorescence, 24 h; stronger effect = lower value; DMSO median 0, no signal -100; GFP signal change (wild-type ribosome), % (concentration not given with the values); 350,000 compounds, 1.6% hits;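 active means significant combined selectivity score with lowered wild-type GFP, culture density cut under 30%, mutant RFP and density less affected; inactive means any of these conditions unmet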; further: one replicate is shown; some compounds called inactive have numbers as strong as hits
Ecoli rRNA inh OD600 – recorded beside Ecoli rRNA inh, whose call it bears; OD600 change, %; measured here: OD600 growth;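 optical density of the mix in the first replicate; 0 = DMSO median and -100 = no signal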
Ecoli rRNA inh RFP – also measured in Ecoli rRNA inh; calls as there; RFP signal change, %; measured here: RFP humanized mutant strains;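 first replicate; 0 = DMSO median and -100 = no signal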
* marks the source's active call; other numbers are inactive results; i = inactive; ? = inconclusive; . = not tested or not shown; & = joins results of further samples. This is a subset; rates above refer to the full screens.

| Molecule | AF4-AF9 inh | Ecoli rRNA inh RFP | Ecoli rRNA inh OD600 | FGF22 binding | HNF4A DNA FP | ALR inh | E coli growth | Vif TR-FRET | Ecoli rRNA inh |
| --- | --- | --- | --- | --- | --- | --- | --- | --- | --- |
| Oc1ccccc1CNc1nccs1 | 0.8 | -0.1 | 2 | i | 0.6 | 46 | 0.64 | 0% | 11 |
| Cc1cccc(NC(=O)Nc2cccc(Oc3c(F)c(F)c(F)c(F)c3F)c2)c1 | . | . | . | . | -0.5 | 3 | 0.67 | -1% | . |
| C[C@@H]1CN([C@H](C)CO)S(=O)(=O)c2ccc(C#CC3(O)CCCC3)cc2O[C@H]1CN(C)C | -2.6 | 2.0 | 17 | i | . | . | . | . | 8 |
| COCC(=O)N1C[C@@H](C)[C@H](OC)CN(C)C(=O)c2cc(NC(=O)c3ccc(OC)cc3)ccc2OC[C@H]1C | -1.6 | -2.8 | 3 | i | . | . | . | . | -2 |
| CCC(=O)Nc1ccc2c(c1)C(=O)N(C)C[C@H](OC)[C@H](C)CN(C(=O)NC(C)C)[C@H](C)CO2 | 0.3 | 0.2 | 3 | i | . | . | . | . | 3 |
| O=[N+]([O-])c1ccccc1/C=C/C=N/n1c(-c2ccccc2)n[nH]c1=S | -4.4 | 3.3 | -6 | i | 0.1 | ? | . | . | 0 |
| COc1ccc(-c2cc3ccccc3c(=O)o2)cc1 | -5.8 | -5.1 | -18 | i | 0.2 | . | . | . | -6 |
| O=C(NNC(=O)C1COc2ccccc2O1)c1ccccc1 (stereo not drawn) | . | . | . | . | -0.9 | -6 | 0.7 | 5% | . |
| c1ccc(-c2nc(N3CCCCCC3)nc(-n3ccnc3)n2)cc1 | . | . | . | . | -0.5 | -4 | 0.74 | -12% | . |
| CCOC(=O)c1c(CSC(=N)N)n(-c2ccc(Br)cc2)c2cc(Br)c(OC(C)=O)cc12 | . | . | . | . | 1.7 | . | 0.69 | -5% | . |
| C[C@@H]1CCCCO[C@H](CN(C)C(=O)Nc2cccc3ccccc23)[C@H](C)CN([C@H](C)CO)C(=O)c2cc(NS(=O)(=O)c3ccc(Cl)cc3)ccc2O1 | -3.5 | 3.2 | -3 | i | . | . | . | . | 2 |
| C[C@@H](O)C#Cc1ccc2c(c1)O[C@H](CN(C)C(=O)c1ccncc1)[C@@H](C)CN([C@@H](C)CO)S2(=O)=O | -2.4 | -2.2 | 4 | i | . | . | . | . | 0 |
| COc1cc(C(c2sc3nc(C)nn3c2O)N2CC(C)OC(C)C2)cc(OC)c1OC (stereo not drawn) | 1.3 | 3.3 | 8 | i | 0.7 | . | 0.77 | -1% | 7 |
| COc1ccc(Cl)cc1NC(=O)CSc1nc(NS(=O)(=O)c2ccccc2)cc(=O)[nH]1 | -0.8 | -0.1 | -8 | i | 3.2 | . | 0.72 | . | 0 |
| COc1ccc(-c2nnc3ccc(SCC(N)=O)nn23)cc1OC | . | . | . | . | 2.4 | -6 | 0.68 | 0% | . |
| CN(C1CCCCC1)C(CNS(=O)(=O)c1ccccc1)c1ccccc1 (stereo not drawn) | 2.8 | 3.3 | -2 | i | -1.0 | 5 | 0.68 | . | 3 |
| Cc1cc(S(=O)(=O)c2ccc(Cl)cc2)nc(S(=O)(=O)c2ccc(Cl)cc2)c1C#N | -4.6 | -0.3 | 19 | i | 11 | . | . | -4% | 8 |
| CCOC(=O)N1CCN(C(=O)c2ccc3nc(SCc4ccc(F)cc4)n(C)c3c2)CC1 | . | -2.1 | -11 | . | -0.5 | . | 0.7 | 1% | -2 |
| Cc1nc(N2CCOCC2)c2c(C)c(C(=O)Nc3ccc(C(F)(F)F)cc3)sc2n1 | -0.4 | -2.1 | -55 | i | -0.1 | -8 | 0.7 | -3% | -40 |
| O=C(O)CNS(=O)(=O)c1ccc(F)cc1 | . | . | . | . | 1.1 | -13 | 0.69 | 4% | . |
| N#C[C@@H]1[C@H](c2ccccc2)[C@H](CO)N1C(=O)c1cc(Cl)cc(Cl)c1 | 0.5 | 0.2 | 1 | i | . | . | . | . | -1 |
| C[C@@H]1CCCCO[C@@H](CN(C)Cc2ccc(C(=O)O)cc2)[C@@H](C)CN([C@@H](C)CO)C(=O)c2cc(NC(=O)Nc3ccccc3)ccc2O1 | -0.4 | 0.1 | 0 | i | . | . | . | . | 3 |
| O=C(CSc1nnc(-c2ccncc2)n1Cc1ccco1)OC1CCCCC1 | -17 | 11 | -10 | i | -0.1 | 32 | 0.7 | 4% | -20 |
| CCCCn1nnnc1C(c1ccccc1)N1CCN(C(C)=O)CC1 (stereo not drawn) | -0.6 | 4.4 | 11 | i | -0.1 | . | . | . | 11 |
| CC1(C(=O)Nc2ccc(F)c(Cl)c2)Cc2c(-c3cccc(C(F)(F)F)c3)ccnc2O1 (stereo not drawn) | -3.5 | . | . | i | 4.3 | . | . | . | . |
| COCCCNc1nc2c(-c3ccc(C)cc3)nnn2c2ccccc12 | 0.7 | 1.7 | 11 | i | -2.4 | -3 | 0.69 | 2% | 11 |
| Cc1ccc(C2CC(C(F)(F)F)n3ncc(C(=O)NCc4ccco4)c3N2)cc1 (stereo not drawn) | . | . | . | . | 3.3 | -4 | 0.69 | -2% | . |
| Cc1cccc(NC(=S)NC(NC(=O)c2ccco2)C(Cl)(Cl)Cl)c1 (stereo not drawn) | . | . | . | . | -6.8 | 4 | 0.65 | 27% | . |
| CN(C)S(=O)(=O)c1cccc(NC(=O)CCSc2ccc(Cl)cc2)c1 | 1.7 | 3.8 | -20 | i | 3.0 | 3 | 0.69 | -20% | -21 |
| COc1cccc(C(=O)Nc2ccc3c(c2)C(=O)N(C)C[C@@H](OC)[C@@H](C)CN(C(C)=O)[C@H](C)CO3)c1 | 3.3 | -1.7 | -1 | i | . | . | . | . | -1 |
| COc1ccc(CN(C(C)=O)c2cc(C)c([N+](=O)[O-])cc2OC)cc1OC | 1.2 | -6.0 | 1 | i | -0.9 | . | . | 4% | -2 |
| CNC[C@@H]1Oc2ncc(-c3ccc(C#N)cc3)cc2C(=O)N([C@H](C)CO)C[C@@H]1C | -3.7 | 3.2 | 8 | i | . | . | . | . | 8 |
| CC/C(=N\NS(=O)(=O)c1ccc(C)cc1)c1ccco1 | -4.0 | 0.0 | 9 | i | 0.7 | 98* | . | -2% | 15 |
| COc1ccc(S(=O)(=O)N2CCC(N3CCCC3)CC2)cc1 | 4.0 | -2.1 | 5 | i | -0.2 | 3 | 0.66 | -8% | 3 |
| CC(Oc1ccccc1)C(=O)N1CCN(C(=O)C(C)Oc2ccccc2)CC1 (stereo not drawn) | -2.4 | 0.8 | 10 | i | -0.7 | . | 0.7 | -6% | 10 |
| N#C/C(=C\C1CC=CCC1)c1nc2ccccc2[nH]1 (stereo not drawn) | . | . | . | . | -4.7 | 44 | 0.7 | 9% | . |
| CCN1CCN(CC#CCOc2ccccc2OC)CC1 | -6.8 | 0.1 | -4 | i | 0.9 | -7 | 0.66 | . | 7 |
| O=C(NCc1csc2ccc(Cl)cc12)Nc1ccccc1 | 0.3 | 0.8 | 14 | i | 1.5 | 1 | 0.67 | -3% | 2 |
| C=C1CCC[C@]2(C)C[C@H]3OC(=O)C(CNCC(C)C)[C@H]3CC12 (stereo partly drawn) | -0.9 | 4.4 | -1 | i | 0.4 | 16 | 0.67 | -3% | 7 |
| Cc1ccc(C)c(NC(=O)CSc2nnc3n2CCCCC3)c1 | -0.6 | -0.7 | 1 | i | -0.7 | -15 | 0.69 | 18% | 9 |

Arranged by the number under Vif TR-FRET (falling): some entries from above.
compound	Vif TR-FRET
O=C(CSc1nnc(-c2ccncc2)n1Cc1ccco1)OC1CCCCC1	4%
CC/C(=N\NS(=O)(=O)c1ccc(C)cc1)c1ccco1	-2%
O=C(NCc1csc2ccc(Cl)cc12)Nc1ccccc1	-3%
CN(C)S(=O)(=O)c1cccc(NC(=O)CCSc2ccc(Cl)cc2)c1	-20%

Carrying on.
| Molecule | AF4-AF9 inh | Ecoli rRNA inh RFP | Ecoli rRNA inh OD600 | FGF22 binding | HNF4A DNA FP | ALR inh | E coli growth | Vif TR-FRET | Ecoli rRNA inh |
| --- | --- | --- | --- | --- | --- | --- | --- | --- | --- |
| FC(F)(F)c1cc(Cl)c2nc(-c3ccc(Cl)cc3)c(Cc3ccccc3)n2c1 | -3.5 | -5.0 | -3 | i | 3.3 | . | . | . | 0 |
| Cc1ccc(-n2nnnc2-c2nc3ccccc3s2)cc1 | . | . | . | . | -1.8 | -6 | 0.69 | -33% | . |
| COc1ccc(N/N=C(C)/C(=N/O)C(=O)Nc2ccccc2)cc1 | 7.2 | -1.4 | -4 | i | -0.6 | . | . | -8% | 3 |
| CNC[C@H]1Oc2ncc(-c3ccc(C#N)cc3)cc2C(=O)N([C@@H](C)CO)C[C@H]1C | -1.0 | -1.7 | 11 | i | . | . | . | . | 8 |
| O=C(NCCc1ccccc1)C1CCCN(c2cnccn2)C1 (stereo not drawn) | -5.3 | 3.0 | 11 | i | 1.5 | 26 | 0.73 | 3% | 10 |
| CCCc1nnc(NC(=O)CCC(=O)N2CCN(c3nc(C)cc(C)n3)CC2)s1 | -7.9 | 0.0 | 14 | i | 1.8 | -15 | 0.67 | -5% | 8 |
| C/C=C/c1cnc2c(c1)C(=O)N([C@@H](C)CO)C[C@@H](C)[C@H](CN(C)C(=O)CN1CCOCC1)O2 | 0.6 | 1.6 | 6 | i | . | . | . | . | -2 |
| CCOC(=O)c1ccc(N=C2NC(=O)CS2)cc1 | . | . | . | . | -2.8 | 98* | 0.66 | 6% | . |
| Cc1ccc(NC(=O)COC(=O)COc2ccc(Cl)cc2C)c([N+](=O)[O-])c1 | . | . | . | . | -0.7 | -6 | 0.68 | -3% | . |
| CC(C)[C@@H](NC(=O)C1CCC(CNC(=O)[C@H](Cc2ccccc2)NC(=O)OC(C)(C)C)CC1)C(=O)O (stereo partly drawn) | 1.7 | -1.7 | 14 | i | 1.3 | -2 | 0.67 | -3% | 9 |
| Cc1noc(C)c1NC(=O)N[C@H]1CC[C@H](CCNC(=O)C2CCC2)O[C@H]1CO | -3.0 | -3.1 | 0 | i | . | . | . | . | 1 |
| Cn1cccc1Cc1nnc(SCC(=O)NCCc2ccccc2)n1-c1ccc(F)cc1 | 2.4 | -2.5 | -3 | i | 2.9 | 24 | 0.73 | 4% | 0 |
| O=C(OCCN1CCOCC1)c1cccnc1 | -22&0.7 | -6.7&-10.0 | 18&-1 | i | 5.0&-0.5 | 17&-3 | 0.72&0.67 | 8%&-2% | 15&7 |
| COc1ccc(CNC(=O)CS(=O)(=O)Cc2nc(-c3cccc(OC)c3)oc2C)cc1 | -1.3 | 3.7 | 13 | i | -0.5 | 91* | 0.69 | . | 12 |

Looked up one by one from the list above:
| Molecule | AF4-AF9 inh | Ecoli rRNA inh RFP | Ecoli rRNA inh OD600 | FGF22 binding | HNF4A DNA FP | ALR inh | E coli growth | Vif TR-FRET | Ecoli rRNA inh |
| --- | --- | --- | --- | --- | --- | --- | --- | --- | --- |
| CC1(C(=O)Nc2ccc(F)c(Cl)c2)Cc2c(-c3cccc(C(F)(F)F)c3)ccnc2O1 (stereo not drawn) | -3.5 | . | . | i | 4.3 | . | . | . | . |
| O=C(OCCN1CCOCC1)c1cccnc1 | -22&0.7 | -6.7&-10.0 | 18&-1 | i | 5.0&-0.5 | 17&-3 | 0.72&0.67 | 8%&-2% | 15&7 |
| Cc1ccc(-n2nnnc2-c2nc3ccccc3s2)cc1 | . | . | . | . | -1.8 | -6 | 0.69 | -33% | . |
| CCOC(=O)c1c(CSC(=N)N)n(-c2ccc(Br)cc2)c2cc(Br)c(OC(C)=O)cc12 | . | . | . | . | 1.7 | . | 0.69 | -5% | . |
